Ecoli growth = blocks Escherichia coli growth | OD600, 23 h; active compounds read low | OD600 absorbance (no concentration beside the values) | 0.21% of 330,000 active | AID 1053175;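 active = OD600 absorbance below the run mean of sample wells minus 3.6 SD, in any replicate, cut at about 0.56 in these data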;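 also: stock transfer was 300 nL into about 60 µL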
UCH37 inh = blocks the human deubiquitinase UCH37. Q9Y5K5. purified proteasome/UCH37, Ub-AMC cleavage fluorescence. inhibition, % (no concentration beside the values). 0.33% of 330,000 active;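 active = mean of two replicates above 20%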;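 also: 0% = compound-free wells with enzyme and 100% = wells lacking proteasome; stock transfer was 100 nL into about 20 µL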
Target sequence (Q9Y5K5 whole entry, looked up): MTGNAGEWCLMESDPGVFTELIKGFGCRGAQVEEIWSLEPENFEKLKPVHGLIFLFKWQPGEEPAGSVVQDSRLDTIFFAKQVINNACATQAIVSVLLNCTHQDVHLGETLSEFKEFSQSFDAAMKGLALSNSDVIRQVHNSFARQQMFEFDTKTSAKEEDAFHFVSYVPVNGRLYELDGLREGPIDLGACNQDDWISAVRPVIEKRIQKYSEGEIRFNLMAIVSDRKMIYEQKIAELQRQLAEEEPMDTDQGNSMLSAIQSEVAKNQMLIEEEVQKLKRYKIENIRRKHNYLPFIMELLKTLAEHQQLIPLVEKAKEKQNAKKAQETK
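Material: human UCH37 enzyme supplied as purified proteasome complex. Measure: % inhibition of Ub-AMC cleavage fluorescence. Medium: pH 7.4 Tris-HCl (50 mM) with ovalbumin, ATP-MgCl2, DTT. Times: 30 min preincubation with enzyme, 25 min cleavage at room temperature. Detection: AMC fluorescence intensity at 355/460 nm.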
RanGTP-Imp inh = inhibitors of RanGTP-importin-beta interaction, primary screen, biochemical, FRET, CFP-Ran, YFP-importin-beta, homogeneous; AID 2216; 1.1% of 300,000 active; inhibition, % (concentration not given with the values); cell-free CFP-Ran/YFP-importin-beta FRET ratio;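 active = most replicates above 15%; inconclusive = exactly half above 15%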;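 also: 0% = DMSO wells and 100% = Ran loaded with GDP instead of GTP; wells of about 40 µL received 100 nL stock; the first replicate is given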
Vif A3G = inhibitors of Vif binding to APOBEC3G peptide, primary screen, biochemical, TR-FRET, GST-Vif 1-94, biotin-A3G peptide, dose response retest (AID 1117319); inhibition, %, or IC50 in µM where a hit was titrated; 0.57% of 260,000 active; TR-FRET GST-Vif / biotin-A3G peptide binding; higher % means a stronger effect; test concentration not given here; strong numbers were not always called active;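 active = above the screen mean plus three standard deviations and confirmed in dose response; inconclusive = results disagree or hit not tested in dose response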;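 also: Vif residues 1-94 fused to GST binding biotinylated APOBEC3G peptide 110-148; 0% = full assay without inhibitor and 100% = GST in place of GST-Vif; retest series ran down from 100 µM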
HNF4A DNA FP = change in binding of human HNF4 alpha to DNA; 0.3% of 360,000 active; HNF4a-FITC DNA binding, fluorescence polarization, 1 h; activity change, % at 10 µM; in the data active = activity change above about 30%, passing the limit was not always enough;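 also: controls were the assay level and a saturating level of protein; the project sought stronger binding though the title names inhibitors; some compounds called inactive have numbers as strong as hits; positive values seem to mean higher polarization but the record does not say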
FGF22 binding = FGF22 (human) thermal shift binding. Q9HCT0. recombinant FGF22 thermal shift, SYPRO orange fluorescence; percent of sucrose octasulfate shift, DMSO zero. calls only at 9.99 µM. 1.5% of 340,000 active. AID 651658;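 active = melting point raised past a set limit in the mean and every replicate; inconclusive = no clear call; three in four hits are not shown here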
Target sequence (Q9HCT0 whole entry, looked up): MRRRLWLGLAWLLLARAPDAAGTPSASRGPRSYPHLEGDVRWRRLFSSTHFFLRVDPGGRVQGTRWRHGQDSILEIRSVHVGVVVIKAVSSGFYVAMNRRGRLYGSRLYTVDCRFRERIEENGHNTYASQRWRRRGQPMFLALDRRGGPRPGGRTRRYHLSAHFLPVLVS
MLL AF4-AF9 inh = blocks AF4 peptide binding to human AF9; P42568; AlphaScreen, biotin-AF4 peptide binding to FLAG-AF9; inhibition, % at 10 µM; 0.47% of 350,000 active;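 active = every replicate reaching a set inhibition limit, whatever the replicate mean, cut at about 25% in these data; inconclusive = mean inhibition reaches that limit but some replicates miss it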;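 also: 0% = plate neutral control median and 100% = total signal loss; the record names both 10 and 1 µM as test concentration; the first replicate is given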
Target sequence (P42568 whole entry, looked up): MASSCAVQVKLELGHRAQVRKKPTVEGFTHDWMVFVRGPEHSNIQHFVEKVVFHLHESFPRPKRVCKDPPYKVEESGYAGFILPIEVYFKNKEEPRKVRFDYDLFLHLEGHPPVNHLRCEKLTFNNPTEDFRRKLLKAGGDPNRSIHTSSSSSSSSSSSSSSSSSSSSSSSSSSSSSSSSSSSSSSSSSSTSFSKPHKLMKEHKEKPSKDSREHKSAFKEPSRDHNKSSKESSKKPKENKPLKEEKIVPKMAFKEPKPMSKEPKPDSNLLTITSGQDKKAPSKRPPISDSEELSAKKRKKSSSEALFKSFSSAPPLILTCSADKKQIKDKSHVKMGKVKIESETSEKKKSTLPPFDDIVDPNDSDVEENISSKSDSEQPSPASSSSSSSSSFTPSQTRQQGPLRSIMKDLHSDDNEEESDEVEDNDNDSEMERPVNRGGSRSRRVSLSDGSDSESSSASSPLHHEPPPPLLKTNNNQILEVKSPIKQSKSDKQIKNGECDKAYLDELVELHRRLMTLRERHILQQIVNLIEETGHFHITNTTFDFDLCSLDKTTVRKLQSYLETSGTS
* marks the source's active call; other numbers are inactive results; i = inactive; ? = inconclusive; · = not tested or not shown; & = joins results of further samples. These rows are one share of the data; rates above refer to the full screens.

SMILES | Ecoli growth | UCH37 inh | RanGTP-Imp inh | Vif A3G | HNF4A DNA FP | FGF22 binding | MLL AF4-AF9 inh
CN(C)CCCN1C(=O)c2cc3ccccc3cc2C1=O | 0.632 | -123.2 | -2.0 | -3.4% | -2.0 | i | 2.0
CCOc1ccc(CNS(=O)(=O)c2cccs2)cc1OCC | 0.702 | 0.3 | 5.1 | · | -2.6 | i | -0.6
O=c1cc(-c2ccccc2)oc2cccc(O)c12 | · | · | · | · | 1.7 | i | 2.2
O=C(Nc1nc(-c2cccs2)c(-c2cccs2)s1)C1CCCC1 | 0.739 | -6.0 | -7.0 | · | 3.2 | i | 1.2
CC(=O)c1ccc(S(=O)(=O)Nc2c(C)nn(C)c2C)cc1 | 0.655 | 0.0 | · | 20.5% | -2.9 | i | -6.1
CCN(CC)c1ccc(/C=N/N2CC(=O)NC2=S)cc1 | · | · | · | · | 0.3 | i | 1.4
Cc1cccc(C)c1NC(=O)C(c1ccccc1OC(F)(F)F)N1CCN(c2ccc(F)cc2)CC1 (stereo not drawn) | · | · | · | · | 0.8 | i | 1.4
Fc1ccc(-c2cnc[nH]2)cc1 | 0.732 | 2.5 | -3.9 | 26.1% | 3.1 | · | ·
O=[N+]([O-])c1ccc(Sc2n[nH]c(-c3ccccc3)n2)nc1 | 0.731 | 6.2 | -2.9 | -1.2% | 2.3 | · | ·
CCS(=O)(=O)c1ccc2oc(Nc3ccccc3C)nc2c1 | 0.724 | 0.3 | -3.6 | -10.2% | 0.6 | · | ·

Profiles, looked up by structure. Values in the order: Ecoli growth	UCH37 inh	RanGTP-Imp inh	Vif A3G	HNF4A DNA FP	FGF22 binding	MLL AF4-AF9 inh
Entry for `O=[N+]([O-])c1ccc(Sc2n[nH]c(-c3ccccc3)n2)nc1` = 0.731	6.2	-2.9	-1.2%	2.3	·	·
Entry for `Cc1cccc(C)c1NC(=O)C(c1ccccc1OC(F)(F)F)N1CCN(c2ccc(F)cc2)CC1` (stereo not drawn) = ·	·	·	·	0.8	i	1.4
Entry for `Fc1ccc(-c2cnc[nH]2)cc1` = 0.732	2.5	-3.9	26.1%	3.1	·	·

Continuation.
SMILES | Ecoli growth | UCH37 inh | RanGTP-Imp inh | Vif A3G | HNF4A DNA FP | FGF22 binding | MLL AF4-AF9 inh
Cc1cc(F)ccc1S(=O)(=O)Nc1ccc(C(=O)N(C)Cc2ccco2)cc1 | 0.681 | 1.4 | · | · | 1.8 | i | 3.9
Cc1cccc(-n2c(-c3ccco3)n[nH]c2=S)c1 | 0.686 | -1.6 | 5.8 | -22.9% | -3.5 | · | ·
Nc1nnc(SCc2ccccc2)n1-c1ccccc1 | 0.667 | -1.2 | -0.1 | 32.5% | 1.8 | · | ·
O=C(COC(=O)c1n[nH]c2ccccc12)NCc1ccccc1 | 0.705 | 5.7 | 1.4 | 1.3% | 4.1 | · | ·
c1ccc(CSCc2nc3ccccc3[nH]2)cc1 | 0.631 | 2.4 | 1.0 | 0.9% | -2.4 | · | ·
C=CCOc1ccc(/C=C/C(=O)OCC(=O)N(C)C2CCS(=O)(=O)C2)cc1 (stereo not drawn) | 0.708 | 3.9 | 3.6 | · | 0.6 | i | -0.6
CCc1ccc(OCCn2cccn2)cc1 | 0.666 | -0.1 | -5.3 | 1.6% | 0.6 | i | -1.7
Oc1ccc(N=Nc2ccccc2C(F)(F)F)c2cccnc12 | 0.66 | 8.9 | -3.1 | 10.0% | -6.1 | i | 6.2
COc1cc(NC(=O)c2cc3c(CO)cnc(C)c3oc2=Nc2cccc(C(N)=O)c2)cc(OC)c1 | 0.655 | 3.6 | -2.1 | · | -0.9 | i | -1.3
COC(=O)c1ccc(NC(=O)CNc2ccccc2)cc1 | 0.697 | 4.1 | 2.2 | · | 1.6 | i | -0.7
COCCNC(=O)c1cnn2c(C(F)F)cc(-c3ccc(C)cc3)nc12 | 0.712 | -83.6 | 18.0* | -17.5% | -1.8 | i | -0.3
CC[C@@H](C)[C@H](NC(=O)C1CCN(C(=O)[C@@H](NS(=O)(=O)c2ccc(C)cc2)C(C)C)CC1)C(=O)O | · | 0.3 | 4.9 | 18.5% | -1.0 | · | ·
O=C(OCc1cn([C@H]2C[C@H](c3ccc(Cl)cc3)N(CC3CCCCC3)C[C@@H]2O)nn1)c1ccccc1 | · | · | · | -1.1% | -3.7 | i | -1.2
CC(C)(O)CCc1c(-c2ccc(O)cc2O)oc2c3c(cc(O)c2c1=O)OC(C)(C)C=C3 | 0.698 | 3.8 | -0.9 | · | 17.1 | i | 17.9
COCC(=O)N1CCCC(CNS(=O)(=O)c2ccc(OC)cc2)C1 (stereo not drawn) | 0.676 | 1.0 | -2.2 | · | 1.3 | i | -6.6
CCCNC(=O)CCc1c(C)nc2nc(C)nn2c1C | 0.718 | 0.4 | -1.7 | -0.3% | -3.0 | i | -2.5
CCOC(=O)c1c(C)[nH]c(C)c1C(=O)COC(=O)c1ccc(OC)cc1 | 0.658 | 5.2 | -2.8 | -2.8% | -1.5 | i | 6.3
CCOC(=O)c1nnn(-c2nonc2N)c1CN(C)Cc1ccccc1 | 0.786 | 5.5 | 3.0 | 10.1% | -0.5 | · | ·
CC1CCC(C(C)C)C(OC(=O)C[n+]2cc(-c3ccc(Cl)cc3)n3c2CCCCC3)C1 (stereo not drawn) | 0.644 | 6.9 | 0.9 | -6.7% | 3.5 | i | 9.1
Nc1cc2c(cc1Cl)-c1ccc(Cl)cc1C2 | 0.686 | -2.0 | · | · | -9.3 | · | 1.4
CC(=O)Nc1ccc(C2=NN(C)C(=NCc3ccccc3)SC2)cc1 | 0.666 | 9.1 | 1.1 | 1.8% | 0.6 | · | 13.6
CCN(CC)CCNC(=O)c1ccc(Cl)c(S(=O)(=O)Nc2ccc(Cl)cc2)c1 | 0.694 | 1.5 | 5.4 | -9.7%&0.4% | -0.6&2.0 | i | 0.0
O=C(Nc1ccc(N2CCOCC2)c(Cl)c1)c1ccc(Br)o1 | 0.667 | 2.6 | -2.2 | 3.9% | 1.0 | · | ·
Cn1c(N2CCOCC2)nc2c1c(=O)n(Cc1ccc(Cl)c(Cl)c1)c(=O)n2C | 0.696 | 3.2 | · | 0.5% | -0.1 | · | ·
CCOc1ccc(OCCCC(=O)ON=C(N)c2ccccc2Cl)cc1 | 0.638 | -0.4 | · | · | -3.9 | i | -2.7
Cc1ccc(NC(=O)C(=O)NCC2CCCN2S(=O)(=O)c2cccs2)c(C)c1 (stereo not drawn) | 0.62 | 1.1 | 3.2 | 6.7% | 0.1 | i | -20.6
Cc1ccc(/C=C/C(=O)NCC2COc3ccccc3O2)o1 (stereo not drawn) | 0.698 | -1.4 | -0.3 | 19.6% | 1.6 | i | -3.0
CN(Cc1ccccc1NS(=O)(=O)c1ccc2ccccc2c1)C1CCCCC1 | 0.665 | 0.2 | -3.6 | 2.5% | 0.1 | i | -3.9
Cc1cc(N2CCN(C)CC2)nc2ccc(NC(=S)N3CCN(c4ccc(F)cc4)CC3)cc12 | 0.638 | -30.7 | ? | 3.5% | 2.3 | i | -6.9
O=C(CN(Cc1ccc(F)cc1)C(=O)CCC(=O)Nc1nccs1)NCC1CCCO1 (stereo not drawn) | 0.693 | -0.6 | 0.4 | · | -0.5 | i | -1.8
CCOCc1cc(CN2CCC(CCC(=O)NC3CC3)CC2)ccc1OC | 0.647 | 0.9 | -1.5 | · | 2.0 | i | -1.4
CCN(Cc1nc(-c2ccc(OC)c(OC)c2)no1)C(=O)c1ccc2c(c1)OCO2 | 0.653 | -0.9 | 5.1 | · | -0.7 | i | -1.4
N#Cc1nc(-c2cccc3ccccc23)oc1N | 0.653 | -154.5 | · | · | -0.1 | i | -3.2
Cc1ccc(NC2CCCN(C(=O)c3cccnc3)C2)cc1C (stereo not drawn) | 0.73 | 0.1 | -3.1 | · | -0.2 | i | 0.7
CC(C)OC(=O)c1cccc(C(=O)Oc2ccc(Br)cc2)n1 | 0.678 | -0.2 | 0.6 | -4.9% | -0.2 | · | ·
O=C(O)CCCC(=O)Nc1c(F)c(F)c(F)c(F)c1F | 0.66 | 6.1 | -1.0 | 3.4% | -1.7 | · | ·
Cc1nc2ccccn2c1C(=O)c1ccccc1 | 0.713 | 0.0 | 3.1 | -5.8% | 1.7 | · | ·
O=C(COC(=O)Cc1ccccc1)NCc1ccc2c(c1)OCO2 | 0.646 | 1.7 | · | 3.0% | 1.0 | i | -0.9
CC[C@H](C)C1NC(=O)[C@H](CC(=O)O)NC(=O)c2cc([N+](=O)[O-])cc(I)c2NCCC(C(N)=O)NC1=O (stereo partly drawn) | · | 2.4 | -1.1 | 22.6% | -8.2 | i | -0.7
COc1ccccc1C(CNC(=O)c1cccc(S(=O)(=O)Nc2ccc(C)cc2)c1)N1CCCC1 (stereo not drawn) | 0.66 | 0.7 | 2.2 | -1.5% | 3.8 | i | 15.4
Oc1cc(O)c(CN2CCOCC2)cc1CN1CCOCC1 | 0.676 | 2.1 | · | -11.8% | -0.6 | i | -2.2
CSCCC1NC(=O)N(CC(=O)Nc2ccc(-c3ccccc3)cc2)C1=O (stereo not drawn) | 0.662 | -0.2 | -1.6 | 5.7% | 2.9 | i | -17.7
COc1ccc(C(=O)N2CCN(c3nnnn3-c3ccccc3)CC2)cc1OC | 0.738 | 1.3 | 0.3 | -4.3% | 4.2 | · | ·
CC1(Oc2cccc(C#N)c2)CCN(Cc2ccc(-c3ccccn3)cc2)C1 (stereo not drawn) | · | · | · | · | -2.5 | i | 6.2
O=C(O)Cn1cc(C(=O)C(F)(F)F)c2ccccc21 | 0.681 | 6.3 | -2.0 | -2.3% | -2.5 | i | -1.0
CCCN1CCN(C(=O)C2CCCN(c3ncnc4c3nc3n4CCCCC3)C2)CC1 (stereo not drawn) | 0.699 | 2.6 | 2.1 | · | -5.4 | i | 0.9
CCCCCCOc1ccc(N2C(=O)CC(N3CCC(C(=O)OCC)CC3)C2=O)cc1 (stereo not drawn) | 0.689 | 1.5 | 0.4 | -0.7% | 2.6 | · | ·
COc1ccccc1C(=O)NCC(=O)OCC(=O)N1CC(C)OC(C)C1 (stereo not drawn) | 0.631 | 0.3 | · | 11.1% | 1.2 | i | -0.5
Cc1ccc(OCCn2cc(C(=S)N3CCCC3)c3ccccc32)cc1C | 0.755 | 0.3 | 3.6 | -20.7% | 7.1 | · | ·
CC(=O)OC1CC2(C)C(CCC2(O)C(C)=O)C2CCC3C(Cl)C(=O)CCC3(C)C12 (stereo not drawn) | 0.701 | 0.9 | · | -1.4% | -2.5 | i | -6.6
Remaining list, next part:
SMILES | Ecoli growth | UCH37 inh | RanGTP-Imp inh | Vif A3G | HNF4A DNA FP | FGF22 binding | MLL AF4-AF9 inh
COCC(=O)N(C)c1nnc(-c2ccccn2)s1 | 0.736 | -22.6 | -2.1 | -5.8% | 4.1 | · | ·
Cc1n[nH]c(=O)nc1N/N=C/c1cccs1 | · | · | 0.1 | · | 0.6 | i | -0.4
CCN(CC)S(=O)(=O)c1cc(NC(=O)C2=COCCO2)ccc1Cl | 0.655 | 0.5 | 5.2 | 3.9% | 2.2 | i | 3.6
Cn1c(CNc2ccc(Br)cc2)nc2ccccc21 | · | · | -1.5 | -1.3% | 2.0 | i | 1.7
CN(C(=O)c1cccc(NC(=O)Cc2ccc(NC(=O)C3CCCN(C(=O)C4CCC4)C3)cc2)c1)C1CC1 (stereo not drawn) | 0.675 | 2.2 | · | -8.1% | -0.6 | i | 4.2
O=C(NCC(c1cccs1)N1CCOCC1)C1CCN(S(=O)(=O)c2cc(Cl)ccc2Cl)CC1 (stereo not drawn) | 0.712 | -1.2 | · | · | 0.1 | i | 0.5
CCN(CC)Cc1c(O)ccc2c([N+](=O)[O-])c(C)n(-c3ccc(OC)cc3)c12 | 0.794 | 0.3 | 3.4 | 12.2% | -1.8 | · | ·
C/C(=N\NC(=S)NCc1ccccc1)c1ccco1 | · | · | 3.7 | -11.5% | -0.2 | i | 8.3
